Screens from PubChem BioAssay.
RanGTP-Imp inh: disruptors of Ran-importin-beta complex formation – biochemical, FRET, CFP-Ran, YFP-importin-beta, homogeneous, primary screen | AID 2216 | inhibition, % (no concentration beside the values) | cell-free CFP-Ran/YFP-importin-beta FRET ratio | actives 1.1% (n = 300,000);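 active = most replicates above 15%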;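 note: 0% = DMSO wells and 100% = Ran loaded with GDP instead of GTP; wells of about 40 µL received 100 nL stock; the first replicate is given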
LANA-H2B inh: blocks KSHV LANA binding to histone H2A/H2B; AID 2629; cell-free LANA-H2A/H2B peptide, fluorescence polarization; actives 0.6% (n = 320,000); inhibition, % (no concentration beside the values); in the data active = inhibition mostly above about 10%, no sharp cut-off; inactive = mostly below about 6.7%;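 note: stock transfer was 7.5 nL into about 10 µL; 0% = median of vehicle wells and 100% = median of positive control wells; one replicate is shown; the record names a cut of 25% in any replicate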
Beta cell apopt: beta cell apoptosis inhibition | INS-1E cytokine-induced death, ATP luminescence, 48 h; percent of positive-control rescue, neutral wells zero | protection from apoptosis, % (test concentration not listed) | actives 0.8% (n = 300,000) | AID 435005;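 active = all replicates at 75% or more, or half of them and the mean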;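 note: 0% = cytokine-treated negative control wells and 100% = positive control rescue; higher means more ATP so stronger rescue from cytokine killing; wells of about 40 µL received 100 nL stock; the first replicate is given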
Calb FLC: C. albicans growth modulation with fluconazole; AID 1979; actives 0.57% (n = 300,000); growth inhibition, % (test concentration not listed); C. albicans CaCi-2 (fluconazole-resistant clinical isolate) + fluconazole, Alamar Blue growth, 48 h;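 active = most replicates above 75%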;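 note: all wells also contain fluconazole at 8 µg/ml as a sub-toxic cotreatment; 0% = median of DMSO wells and 100% = median of geldanamycin control wells; wells of about 8 µL received 7.5 nL stock; the first replicate is given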
UCH37 inh: human UCH37 deubiquitinating enzyme inhibition | Q9Y5K5 | purified proteasome/UCH37, Ub-AMC cleavage fluorescence | inhibition, % (concentration not given with the values) | actives 0.33% (n = 330,000);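 active = mean of two replicates above 20%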;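 note: 0% = compound-free wells with enzyme and 100% = wells lacking proteasome; stock transfer was 100 nL into about 20 µL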
Target sequence (Q9Y5K5 whole entry, looked up): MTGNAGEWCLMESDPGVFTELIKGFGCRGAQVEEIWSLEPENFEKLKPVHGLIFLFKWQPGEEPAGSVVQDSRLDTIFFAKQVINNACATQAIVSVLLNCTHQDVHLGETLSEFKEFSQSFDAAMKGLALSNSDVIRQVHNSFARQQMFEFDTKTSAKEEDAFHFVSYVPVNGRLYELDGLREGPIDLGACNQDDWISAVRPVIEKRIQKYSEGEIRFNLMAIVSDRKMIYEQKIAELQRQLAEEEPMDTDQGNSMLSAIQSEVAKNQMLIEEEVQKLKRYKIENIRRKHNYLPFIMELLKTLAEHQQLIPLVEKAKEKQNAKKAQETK
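System: Proteasome-associated human UCH37 deubiquitinase; Input: 0.15 nM proteasome in added enzyme buffer; Also added: Ub-AMC substrate from 1 µM stock; Incubation: 30 min compound-proteasome preincubation then 25 min substrate reaction, room temperature; Detection: fluorescence, ex 355 nm, em 460 nm; Read-out: % inhibition of Ub-AMC cleavage fluorescence; Benchmarks: no-proteasome and no-compound wells.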
Bfl-1 A1 inh: inhibitors of the anti-apoptotic protein A1, read as caspase activation. MEF A1-2A-BIM cells, Caspase-Glo 3/7 luminescence, 3 h; percent of clofoctol response, vehicle zero. caspase activation, % (concentration not given with the values). actives 0.066% (n = 330,000). AID 2462;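 active = over half of replicate activation scores above 10%, or exactly half above 10 with the replicate mean above 10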;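 note: wells of about 30 µL received 50 nL stock; many hits fall short of the cut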
B2AR ag: human beta-2 adrenergic receptor agonism by FAP; P07550; Am2.2-beta2AR cells, FAP receptor internalization, flow cytometry; reference of the scale not given here; response, % (no concentration beside the values); actives 0.43% (n = 340,000); AID 504454;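 active = response above a set limit, near 3 SD of response in nonfluorescent compounds, cut at about 42% in these data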;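 note: stock transfer was 100 nL into about 11 µL; a reference agonist was the positive control; negative values mostly stem from fluorescent compounds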
Target sequence (P07550 whole entry, looked up): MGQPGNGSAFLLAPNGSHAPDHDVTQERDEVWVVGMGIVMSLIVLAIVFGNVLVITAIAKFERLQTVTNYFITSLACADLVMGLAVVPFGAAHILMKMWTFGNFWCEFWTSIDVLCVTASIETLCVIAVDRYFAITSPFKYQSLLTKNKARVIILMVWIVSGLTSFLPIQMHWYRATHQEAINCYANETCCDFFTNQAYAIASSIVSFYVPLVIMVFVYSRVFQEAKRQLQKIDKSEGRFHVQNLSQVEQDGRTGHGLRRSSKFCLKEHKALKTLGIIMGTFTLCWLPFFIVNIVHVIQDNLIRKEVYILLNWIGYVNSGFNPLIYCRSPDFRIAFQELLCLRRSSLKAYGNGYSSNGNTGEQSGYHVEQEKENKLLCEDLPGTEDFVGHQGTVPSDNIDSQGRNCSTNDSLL
T cruzi repl: blocks replication of Trypanosoma cruzi. T. cruzi beta-gal in NIH3T3, luminescence, 90 h. inhibition, % (no concentration beside the values). actives 1.4% (n = 300,000);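 active = mean inhibition across valid replicates above about 55%, limit read from the data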;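 note: signal also drops with host cell toxicity which is not excluded here; 0% = plate median of DMSO wells and 100% = zero luminescence signal; higher percent means less beta-gal luminescence so fewer parasites; stock transfer was 50 nL into about 50 µL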
The depositor's hits bear a star; / = not tested or not shown. The order is random; 4.3% or so of the library scored in one or more.

no.	SMILES	RanGTP-Imp inh	LANA-H2B inh	Beta cell apopt	Calb FLC	UCH37 inh	Bfl-1 A1 inh	B2AR ag	T cruzi repl
1	Cc1cc2c(cc1S(=O)(=O)Nc1ccc(F)cc1)n(C)c(=O)c(=O)n2C	-1.7	1.5	2.9	-2.9	2.9	/	8.5	-1.8
2	CCOC(=O)N1CCC(C(N)=O)CC1	4.9	-1.2	-0.7	1.7	3.2	-0.4	-0.8	-4.5
3	N#CC(=C=[N-])/C=C(\C(=O)c1ccccc1)[n+]1ccccc1	-2.2	20.7*	-8.0	-8.5	/	0.0	-3.3	-5.6
4	CN(C)C(=C(C#N)C#N)N1CCN(c2ccc(Cl)c(Cl)c2)CC1	-2.0	-3.1	1.8	22.9	3.5	-0.4	1.5	20.5
5	CCOC(=O)c1c(-c2ccccc2)csc1NC(=O)C(C)NCCCN1CCOCC1 (configuration not stated)	-2.3	0.7	4.7	1.8	5.7	-0.2	10.3	36.5
6	Cc1ccc(CNC(=O)c2ccc(CNS(=O)(=O)c3ccc4c(c3)C(C)(C)C(=O)N4C)cc2)o1	-0.3	-6.8	1.3	5.0	1.4	0.4	6.2	-12.3
7	COc1ccc(OCC(=O)NNc2nc3ccccc3s2)cc1	-2.6	2.4	-8.7	-30.2	3.6	-0.1	-4.8	-5.9
8	O=C(c1cccs1)n1nc(NCc2ccccc2)nc1NCc1ccccc1	5.1	3.1	8.0	-0.1	1.5	0.6	-0.5	3.5
9	O=C(CNC(=O)c1ccccc1F)Nc1ccc2c(c1)OCO2	/	-7.2	-1.5	/	0.7	0.2	9.2	/
10	CC1Cc2cc(S(=O)(=O)N3CCC(C(=O)NCc4ccco4)CC3)ccc2N1C(=O)C1CCC1 (configuration not stated)	-0.6	-0.3	1.5	3.9	2.6	-0.3	-21.4	-8.9
11	O=C(CCSc1ccc(Cl)cc1)Nc1cccnc1	0.8	-3.0	-13.8	32.6	3.2	-0.1	-3.8	7.7
12	Cc1ccc(NS(=O)(=O)c2ccc3c(c2)n(C)c(=O)n3C)c(C)c1	-0.9	0.4	-7.2	2.6	2.6	-0.1	-3.0	-16.1
13	CCOc1ccc(Oc2ccccc2NC(=O)CN2C(=O)NC3(CCCC3)C2=O)cc1	4.4	3.2	-10.9	4.3	-0.6	0.1	-4.2	-1.9
14	CCOC(=O)CSc1nnc(NC(=O)c2cccc([N+](=O)[O-])c2)s1	1.7	8.1	-1.3	1.2	-2.3	-2.4	0.2	0.0
15	C=CCSc1nnc(-c2ccccc2NC(=O)CC)c(=O)[nH]1	-1.2	0.2	-2.1	3.9	4.6	-0.1	16.6	-9.6
16	C=CCN=C(NC#N)SCC(=O)c1cccc(OC)c1	4.5	2.1	-19.6	32.0	6.9	0.0	-2.0	-10.9
17	COc1ccc(C(C(=O)NC2CCCC2)N(CCC(C)C)C(=O)CCC(=O)Nc2cc(C)on2)cc1 (configuration not stated)	-1.6	-0.6	0.9	0.4	0.8	0.7	-8.2	22.3
18	Cc1n[nH]c(C)c1CNCc1c(C(=O)N2CCCCCCC2)nc2ccc(Cl)cn12	-2.5	0.4	-3.4	-5.8	0.5	0.4	1.5	10.9
19	O=C(O)C1C2C=CC(O2)C1C(=O)Nc1ccccc1C(F)(F)F (configuration not stated)	2.0	-3.7	-5.7	-3.4	2.3	1.4	-5.8	-3.1
20	Cc1ccc(NC(=O)c2cc([N+](=O)[O-])ccc2N2CCOCC2)cc1S(=O)(=O)N1CCOCC1	0.2	3.4	1.9	-2.6	10.0	-0.5	-12.1	16.5

Ten structures from above, ordered by count of non-hydrogen atoms, low to high:
no.	SMILES	RanGTP-Imp inh	LANA-H2B inh	Beta cell apopt	Calb FLC	UCH37 inh	Bfl-1 A1 inh	B2AR ag	T cruzi repl
2	CCOC(=O)N1CCC(C(N)=O)CC1	4.9	-1.2	-0.7	1.7	3.2	-0.4	-0.8	-4.5
16	C=CCN=C(NC#N)SCC(=O)c1cccc(OC)c1	4.5	2.1	-19.6	32.0	6.9	0.0	-2.0	-10.9
15	C=CCSc1nnc(-c2ccccc2NC(=O)CC)c(=O)[nH]1	-1.2	0.2	-2.1	3.9	4.6	-0.1	16.6	-9.6
7	COc1ccc(OCC(=O)NNc2nc3ccccc3s2)cc1	-2.6	2.4	-8.7	-30.2	3.6	-0.1	-4.8	-5.9
12	Cc1ccc(NS(=O)(=O)c2ccc3c(c2)n(C)c(=O)n3C)c(C)c1	-0.9	0.4	-7.2	2.6	2.6	-0.1	-3.0	-16.1
1	Cc1cc2c(cc1S(=O)(=O)Nc1ccc(F)cc1)n(C)c(=O)c(=O)n2C	-1.7	1.5	2.9	-2.9	2.9	/	8.5	-1.8
8	O=C(c1cccs1)n1nc(NCc2ccccc2)nc1NCc1ccccc1	5.1	3.1	8.0	-0.1	1.5	0.6	-0.5	3.5
5	CCOC(=O)c1c(-c2ccccc2)csc1NC(=O)C(C)NCCCN1CCOCC1 (configuration not stated)	-2.3	0.7	4.7	1.8	5.7	-0.2	10.3	36.5
10	CC1Cc2cc(S(=O)(=O)N3CCC(C(=O)NCc4ccco4)CC3)ccc2N1C(=O)C1CCC1 (configuration not stated)	-0.6	-0.3	1.5	3.9	2.6	-0.3	-21.4	-8.9
17	COc1ccc(C(C(=O)NC2CCCC2)N(CCC(C)C)C(=O)CCC(=O)Nc2cc(C)on2)cc1 (configuration not stated)	-1.6	-0.6	0.9	0.4	0.8	0.7	-8.2	22.3

(list continues)
no.	SMILES	RanGTP-Imp inh	LANA-H2B inh	Beta cell apopt	Calb FLC	UCH37 inh	Bfl-1 A1 inh	B2AR ag	T cruzi repl
21	C=CCOc1cccc(C(=O)/C=C2/C(=O)Nc3ccccc32)c1	-0.6	-1.5	1.7	4.1	3.5	0.2	78.5*	44.5
22	COc1ccc(Cl)cc1NC(=O)NCC1CCN(C(=O)OC(C)(C)C)CC1	2.3	1.3	-4.7	-1.9	5.7	-0.6	4.2	4.0
23	O=C(C1CCOCC1)N1CCCC(N2CCN(c3cccc(C(F)(F)F)c3)CC2)C1 (configuration not stated)	1.8	-0.3	-0.6	-10.3	6.0	-0.6	-4.6	2.3
24	CCN(CC)c1ccc(C2CC(=O)NC3=C2C(=O)CC(C)(C)C3)cc1 (configuration not stated)	0.5	-1.5	1.7	-5.6	1.2	0.1	-3.8	-9.4
25	CC(O)CNc1nc2c(c(=O)n(C)c(=O)n2C)n1CCc1ccccc1 (configuration not stated)	3.4	-4.0	2.9	1.5	-0.2	0.3	1.0	4.3
26	Cn1cnnc1SCc1nnc(-c2ccccc2Br)o1	2.5	-0.9	-5.9	-17.8	3.1	-0.2	-3.0	6.0
27	CCOc1ccccc1NC(=O)CN1C(=O)NC(Cc2c[nH]c3ccccc23)C1=O (configuration not stated)	/	3.0	-5.0	/	5.8	-1.8	4.3	/
28	CCCn1c(=O)[nH]c(=O)c2c1nc(-c1ccccc1)n2CCN1CCOCC1	/	4.3	-3.6	/	-1.9	0.2	-6.5	/
29	CCOc1ccc(CN2CCN(Cc3cnc(N4CCOCC4)s3)CC2CCO)cc1 (configuration not stated)	-1.8	0.5	-3.4	-22.3	-15.3	-0.7	-3.2	14.4
30	CCn1c(CC(=O)Nc2ccc(F)cc2)nnc1SCC(=O)NC1=NCCS1	4.8	-0.3	-8.2	0.4	-1.7	0.7	-5.1	1.3
31	CCCOc1ccc(C(=O)N/N=C/c2c[nH]c3ccc(Br)cc23)cc1	0.4	-1.5	-7.7	10.1	/	0.4	11.7	25.1
32	O=C(NCc1cccs1)c1ccc2ccccc2n1	1.7	-2.2	-3.6	-18.4	2.6	0.0	-2.2	-17.3
33	N#Cc1c(N2CCCCC2)nc(N)c2c(N)nc(SCC(=O)O)cc12	7.3	-1.0	11.3	1.2	-90.5	0.4	-2.0	-7.6
34	CN(c1ccccc1C(=O)Nc1ccc(S(=O)(=O)N2CCCC2)cc1)S(C)(=O)=O	4.8	-3.3	/	1.3	2.2	0.4	0.5	-11.0
35	O=C(O)CN1C(=O)/C(=C\c2cccc(OCc3ccc(Cl)cc3)c2)SC1=S	-1.4	0.9	-4.8	3.9	28.5*	-0.8	3.0	17.4
36	COc1ccc(/C=N/n2c(N)nc(-c3ccccc3)c2-c2ccccc2)cc1	-1.2	2.0	-5.9	5.6	/	-3.6	4.4	/
37	COC(=O)N/N=C\c1ccc(OC/C=C/c2ccccc2)cc1	-4.6	1.5	-3.1	42.5	/	-0.7	3.1	16.6
38	CC(C)Cc1ccccc1O	5.9	-1.1	/	4.6	/	-0.4	/	-7.5
39	O=C(O)c1ccc(NC(=O)c2ccc3c(c2)C(=O)N(c2ccccc2)C3=O)cc1	-0.5	-6.4	-13.4	-4.4	-0.5	0.5	-1.9	-17.7
40	CCOC(=O)Cn1c(CN2CCN(C(=O)c3ccco3)CC2)nc2c1c(=O)n(C)c(=O)n2C	-1.8	3.1	-3.0	2.8	0.2	0.9	1.9	-14.8

no.	SMILES	RanGTP-Imp inh	LANA-H2B inh	Beta cell apopt	Calb FLC	UCH37 inh	Bfl-1 A1 inh	B2AR ag	T cruzi repl
41	COc1ccccc1CNC(=O)CSc1nnc2c(n1)[nH]c1ccc(F)cc12	0.2	-0.9	-25.0	-3.4	3.6	0.7	-15.0	14.0
42	Nc1ccc(-c2nc3nc(N)nc(N)c3nc2-c2ccc(N)cc2)cc1	-8.7	1.7	0.8	-13.0	/	0.1	1.4	0.0
43	O=C1CSC(c2ccccc2)N1c1nc(-c2ccc(Cl)cc2Cl)cs1 (configuration not stated)	6.4	-0.6	-1.9	4.9	-0.6	-0.1	5.7	28.7
44	O=C(NC1CC1)C1CC(=O)N(c2ccccc2)C1 (configuration not stated)	1.4	7.0	-11.4	3.6	2.5	-0.4	5.5	-11.3
45	O=C(CSc1ccccn1)N1CCN(C(=O)CSc2ccccn2)CC1	3.3	-1.3	0.9	9.0	2.3	1.0	5.9	-9.8
46	Cc1ccc(Nc2cc(=O)[nH]c(=O)[nH]2)cc1C	8.6	1.6	-4.4	-7.2	-1.0	0.3	37.8	-8.5
47	CC(C)c1onc(C(=O)NCCc2ccccc2)c1[N+](=O)[O-]	-3.0	-0.7	-4.3	26.3	5.3	-0.6	4.7	1.3
48	O=C(COC(=O)c1ccc(S(=O)(=O)N2CCOCC2)cc1)NC1CCCCCC1	-0.2	-3.3	-0.9	16.5	3.0	-0.3	-4.2	-16.8
49	Cc1cc(=O)oc2cc(OCC(=O)OCC(=O)Nc3ccccc3Br)ccc12	0.8	0.5	-1.5	3.8	-30.6	1.0	6.1	-8.3
50	CCOc1ccc(/C=N/N2CCN(Cc3ccccc3)CC2)cc1	3.5	-0.4	1.2	-8.1	/	-0.2	6.5	-3.5
51	CCOC(=O)c1cnc(-c2ccccc2)nc1Oc1cccc(Cl)c1	-1.2	-1.4	-0.9	-0.2	7.9	0.0	1.6	/
